HSV augment = HSV replication enhancement; HSV replication augmentation in cells, fold increase; maximum fold increase; hit rate 0.005% among 220,000; AID 1956;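 active = peak rise of 1.5-fold or more in the series; tested in PC3 cells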;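 also: first round at 10 µM; read as green reporter fluorescence; hits show the peak of a series up to 25 µM; 1 = signal of infected wells without compound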
PKD1 kinase inh = PKD1 (human) kinase inhibition; inhibition, %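 (about 10 µM by stock and volumes)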; PKD1 kinase fluorescence polarization assay; hit rate 0.056% among 200,000; AID 797; Q15139;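 active = inhibition of 50% or more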;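 also: controls were vehicle for no effect and a reference inhibitor for full effect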
Target sequence (Q15139 whole entry, looked up): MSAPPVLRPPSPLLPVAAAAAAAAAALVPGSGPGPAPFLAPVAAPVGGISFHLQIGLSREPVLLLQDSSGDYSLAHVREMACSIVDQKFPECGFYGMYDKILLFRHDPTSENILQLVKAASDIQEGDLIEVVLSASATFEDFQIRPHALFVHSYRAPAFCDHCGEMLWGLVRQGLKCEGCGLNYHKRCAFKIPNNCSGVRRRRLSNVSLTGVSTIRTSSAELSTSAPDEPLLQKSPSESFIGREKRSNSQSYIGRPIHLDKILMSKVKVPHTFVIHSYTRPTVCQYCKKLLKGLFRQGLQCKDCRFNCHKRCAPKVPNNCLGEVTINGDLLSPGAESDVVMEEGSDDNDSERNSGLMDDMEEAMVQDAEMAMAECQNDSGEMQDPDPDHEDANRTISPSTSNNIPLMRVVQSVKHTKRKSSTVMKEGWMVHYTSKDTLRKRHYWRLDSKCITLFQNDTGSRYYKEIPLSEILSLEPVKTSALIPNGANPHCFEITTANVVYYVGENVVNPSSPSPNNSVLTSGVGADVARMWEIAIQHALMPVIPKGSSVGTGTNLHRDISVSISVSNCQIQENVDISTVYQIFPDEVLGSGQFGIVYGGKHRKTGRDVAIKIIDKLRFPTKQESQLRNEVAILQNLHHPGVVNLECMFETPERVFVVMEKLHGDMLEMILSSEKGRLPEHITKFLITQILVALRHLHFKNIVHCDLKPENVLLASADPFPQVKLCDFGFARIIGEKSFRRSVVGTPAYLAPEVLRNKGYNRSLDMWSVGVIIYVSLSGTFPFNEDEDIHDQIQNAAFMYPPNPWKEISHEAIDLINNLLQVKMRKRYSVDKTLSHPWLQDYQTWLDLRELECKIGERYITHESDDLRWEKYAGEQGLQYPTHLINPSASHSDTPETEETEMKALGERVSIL
INS promoter inh = TRM-6 insulin promoter activity inhibition; TRM-6 cells (human fetal islet line), insulin promoter-eGFP reporter, imaging; reporter expression induced with tamoxifen; inhibition, % at 2 µM; hit rate 0.9% among 130,000; AID 1273;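 active = inhibition above the mean plus 3 SD, with well images judged a real hit on visual review, cut at about 60% in these data, passing the limit was not always enough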
GALR2 ag = agonists of human galanin receptor 2 (GALR2). O43603. GALR2-expressing cells, agonist activation read-out. activation, %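 (tested at 5 µM)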. hit rate 0.48% among 140,000. AID 803;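 active = above mean plus 3 SD of all compounds, about 5% in these data, not always enough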;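 also: 0% = vehicle buffer wells and 100% = reference agonist at full effect; tested in CHO reporter cells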
RGS16-Gao HTS = RGS16-Galphao interaction regulator (human); O15492+P09471; bead-based flow cytometry RGS16-Galphao binding, fluorescence; actives lie on both sides; binding response (% of control), % at 10 µM; hit rate 0.38% among 220,000; AID 1441;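 active = below 25% or above 175%, edge rows of some plates excepted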;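 also: Galphao activated by GDP with aluminum fluoride before binding; 100% = wells without compound and 0% = beads without RGS; some results beyond the cut were filed as inactive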
INS promoter inh cell count = also measured in INS promoter inh; calls as there; normalized cell count, %; measured here: cell count, toxicity; reference of the scale not given here;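 cells exposed to compound for 48 h; stained nuclei by imaging scaled within each plate; lower means fewer cells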
HSV augment primary fold = also measured in HSV augment; calls as there; fold increase; compound at 10 µM; measured here: primary screen fold increase 10 uM; tested in PC3 cells;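 GFP signal in the first replicate; 1 = infected wells without compound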
The depositor's hits bear a star; i = inactive; . = no result given.

SMILES	HSV augment	HSV augment primary fold	PKD1 kinase inh	INS promoter inh	INS promoter inh cell count	GALR2 ag	RGS16-Gao HTS
O=C1C(Cl)=C(N2CCCCC2)C(=O)N1Cc1ccccc1	i	1	-8	16	69	-1.1	73
COC(=O)c1ccccc1NC(=O)CN(c1ccccc1)S(=O)(=O)N(C)C	i	1.1	-6	-44	196	-0.9	103
S=C(Nc1ccc(Br)cc1)NC1CCCC1	i	0.98	-2	-40	118	-0.9	99
COc1ccccc1NC(=O)c1nn(-c2cccc(C(F)(F)F)c2)ccc1=O	i	0.89	2	-74	108	1.0	135
N#CC1=C(N)Oc2ccccc2C12C(=O)Nc1n[nH]c(-c3ccccc3)c12 (stereo unspecified)	i	0.93	-2	-22	114	-0.4	104
CC(O)CN(Cc1cccc(Cl)c1)CC(C)O (stereo unspecified)	i	1	8	8	103	-0.5	103
COc1ccc(C2C(C(=O)N3CCCC3)c3cc(OC)c(OC)cc3C(=O)N2C)cc1OC (stereo unspecified)	i	0.88	11	6	88	-0.5	107
COc1ccc(-c2cn3c(n2)CCC3)cc1	i	1.3	-1	.	.	-2.1	99
CC(=O)OC1COC(N2CCc3ccccc32)C(OC(C)=O)C1OC(C)=O (stereo unspecified)	i	0.99	-16	3	69	-0.6	56
CC(=O)NCCC(=O)Nc1cc(F)ccc1C	i	1.1	2	48	103	-2.2	107
COc1cc(OC)cc(C(=O)NCc2n[nH]c(=S)n2-c2ccccc2)c1	i	1.4	-2	.	.	-0.8	101
O=c1c(Cc2c(F)cccc2Cl)c(O)ccn1C1CC1	i	1	7	55	72	.	99
CCOC(=O)c1noc(C)c1C(=O)Nc1nc(C)cc(C)n1	i	0.97	-5	36	188	.	111
CN(CCC#N)C(=O)COC(=O)c1ccccc1OCc1ccccc1Cl	i	1	4	.	.	.	102
CCOC(=O)N1CCN(C(=O)CN(Cc2ccccc2)S(C)(=O)=O)CC1	i	1.1	-7	25	75	-1.5	63
COC(=O)c1cccc(N2CCCC2=O)c1	i	1	.	.	.	.	103
COc1ccccc1CN1CCNC(=O)C1CC(=O)O (stereo unspecified)	i	0.98	-1	-12	99	.	105
CCCC1=C(C(=O)OCC)C(/C=C/c2ccccc2)n2ncnc2N1 (stereo unspecified)	i	0.57	-3	-27	90	0.1	74
CCc1cc(C(=O)N2CCOCC2)c(NC2=NS(=O)(=O)c3ccccc32)s1	i	1.3	-3	0	113	-1.7	101
Cc1cc(NCc2ccco2)n2ncnc2n1	i	0.94	4	11	127	-1.4	119
O=C(COC(=O)Cc1c(Cl)cccc1Cl)NCC1CCCO1 (stereo unspecified)	i	1	-2	.	.	.	156
CC(=O)N1CCN(c2nc(N)c(C#N)c(CC#N)c2C#N)CC1	i	1.1	.	.	.	.	102
Cc1ccc(C2C(C#N)=C(N)OC3=C2C(=O)CC(C)(C)C3)s1 (stereo unspecified)	i	1.1	.	.	.	.	96
CCOC(=O)C1=C(CSc2nc(C)cc(C)c2C#N)OC(N)=C(C#N)C1c1ccccc1 (stereo unspecified)	i	1.2	1	-3	101	-2.2	101
N#Cc1c(N(CCO)CCO)nc(N)c2c(N)nc3c(c12)CC(=O)N3CC1CCCO1 (stereo unspecified)	i	1.1	.	.	.	.	95
COc1ccc(N2CCN(C(=O)c3ccc(NS(=O)(=O)c4ccccc4)cc3)CC2)cc1	i	1	-5	24	199	-2.4	100
O=C(CCn1ccc([N+](=O)[O-])n1)Nc1nccs1	i	0.89	2	.	.	.	96
COc1ccc(C(=O)N2CC3(CC(c4cccc(NC(=O)COc5ccc(Cl)cc5)c4)=NO3)C[C@@H]2C(N)=O)cc1 (stereo partly specified)	i	0.84	.	.	.	.	103
COc1cccc2cc(C(=O)Nc3cccnc3N3CCOCC3)c(=O)oc12	i	0.75	0	30	120	-2.0	102
Cc1ccc(NC(=O)C2CCCO2)cc1[N+](=O)[O-] (stereo unspecified)	i	0.98	7	.	.	-1.3	102
Cc1sc(NC(=O)/C=C/c2ccco2)c(C(=O)OC(C)C)c1C	i	1.2	5	-9	151	-0.7	99
O=C(O)c1cc2cc(Cl)cc(Cl)c2oc1=O	i	1	-2	.	.	-1.5	102
NC(=O)CNC(=O)c1ccc(Cl)cc1	i	1.1	.	.	.	.	99
COc1ccc(NC(=O)CN(C)CC(=O)Nc2ccccc2SC)cc1	i	0.94	2	.	.	0.1	104
COc1ccc(OCC(=O)Nc2ccc(N3CCCCC3)cc2)cc1	i	0.79	-6	.	.	.	104
O=C(c1ccc2ccccc2c1)N1CCN(c2ccc(C(F)(F)F)cn2)CC1	i	0.96	-1	14	29	-2.1	105
Cc1ccc(C(=O)Nc2nc(C)c(C(=O)Nc3ccc4c(c3)CCC4)s2)cc1	i	0.58	6	7	71	0.1	104
O=C(O)C1CC(=O)N(C2CCCCCC2)C1 (stereo unspecified)	i	1.1	-7	31	117	-2.4	104
COc1ccc(-c2nnn(CC(=O)N(CC(=O)NCCC(C)C)c3ccccc3)n2)cc1OC	i	1	-4	0	103	-2.7	106
Cc1nnc(SCC(=O)c2ccc(S(=O)(=O)N3CCOCC3)cc2)n1-c1ccccc1	i	0.85	10	-69	159	-2.2	105
Cc1nnc(C)c2c(C)n(C(c3ccccc3)c3ccccc3)c(C)c12	i	0.94	0	13	112	0.0	99
Cc1ccccc1NC(=O)CCC(=O)N/N=C/c1cc([N+](=O)[O-])ccc1O	i	1.1	9	-17	143	-1.3	94
COc1cc(/C=N/N2CCN(C3c4ccccc4-c4ccccc43)CC2)cc(OC)c1O	i	0.9	-14	.	.	-0.4	101
COC(=O)C1C(c2ccccc2)C=CC(c2ccccc2)C1C(=O)O (stereo unspecified)	i	0.96	.	.	.	.	105
COc1cccc(NC(=O)COc2ccc(S(=O)(=O)NC(C)C)cc2)c1	i	0.89	-1	0	86	-1.1	96
CC(=O)COc1ccc2c(-c3ccccc3)cc(=O)oc2c1	i	0.83	-4	14	99	0.4	99
CCOc1ccccc1C1C(C(=O)OC)=C(N)OC2=C1C(=O)CCC2 (stereo unspecified)	i	1	-13	.	.	0.0	103
Cc1ccc(CN(c2ccc(C(=O)NCc3ccccn3)cc2)S(C)(=O)=O)cc1	i	0.96	-2	.	.	-0.9	100
CCN(CC)CCn1c(=N)n(CC(O)c2ccco2)c2ccccc21 (stereo unspecified)	i	0.93	1	i	71	0.3	103
CCC(CC)NC(=O)COC(=O)c1ccc(OCc2ccc(C(C)=O)cc2OC)c(OC)c1	i	1	4	2	85	-2.0	112
O=C(C[n+]1cccc(CNC(=O)c2ccc(OC(F)F)cc2)c1)Nc1ccccc1Cl	i	1.1	-4	.	.	-0.5	101
Cc1cccc(C)c1NC(=O)NC1CC2CCC(C1)N2Cc1cccs1 (stereo unspecified)	i	1.1	-1	-19	111	-2.1	105
O=C(CP(=O)(c1ccccc1)c1ccccc1)N/N=C/c1cc(Br)cc(Br)c1O	i	0.86	-2	.	.	-0.2	95
CC(C)C12CN3CC(C(C)C)(CN(C1)C3(C)C)C2=O	i	0.94	-3	-12	99	.	96
CCOc1ccc(CC(=O)N2CCN=C2SC)cc1	i	0.92	2	.	.	.	101
Nc1ccc(C(=O)O)cc1[N+](=O)[O-]	i	0.96	-6	.	.	.	98
C/C(=N\NC(=O)CCCCCNC(=O)c1ccccc1)c1ccccc1O	i	0.9	-1	47	65	-2.0	108
Oc1cc2ccccc2cc1-c1nnc2n1-c1ccccc1SC2	i	0.89	1	-3	100	-1.1	98
Cc1cc(C)cc(N=Cc2c(O)c3ccccc3oc2=O)c1	i	0.98	-8	.	.	.	94
CC(=O)c1cc(CC=C(C)C)c(O)cc1O	i	1.1	-7	0	86	-2.1	98

Further compounds.
SMILES	HSV augment	HSV augment primary fold	PKD1 kinase inh	INS promoter inh	INS promoter inh cell count	GALR2 ag	RGS16-Gao HTS
Cc1cc(-c2cccc([N+](=O)[O-])c2)nc2ccc3ccccc3c12	i	0.87	3	-137	111	-2.4	91
CCCNC(=O)C(CC)NS(=O)(=O)c1ccc(OC)cc1 (stereo unspecified)	.	.	-6	65	134	-1.9	97
O=C(Cc1ccccc1)NC(=S)Nc1ccc(N2CCCCC2)cc1	i	1	-6	13	172	-0.6	105
CC(=O)Nc1ccc(S(=O)(=O)N2CCSC2c2ccc(Cl)cc2)cc1 (stereo unspecified)	i	0.9	8	.	.	-0.9	60
CCCN1C(=O)/C(=C/c2ccc(C)o2)SC1=Nc1ccc(OCC)cc1	i	1	-1	-17	96	-0.5	88
Cc1cc(=O)[nH]c(S/C=C/c2ccccc2)n1	i	1.1	-4	-76	72	-2.1	101
O=C1NN(c2ccccc2)C(=O)/C1=C\c1cccn1-c1ccc(Cl)c([N+](=O)[O-])c1	i	1	2	41	72	-1.9	105
O=C(O)CCC(=O)N1CCC(n2nnc3cc(C(F)(F)F)ccc32)CC1	i	1.1	.	.	.	.	96
CCc1c(C)nc(SCC(=O)N2C(C)CCCC2C)[nH]c1=O (stereo unspecified)	i	1.1	1	-50	57	.	99
O=C(CCCC(=O)OCC(=O)c1cccs1)Nc1ccc(F)cc1	i	1.1	4	.	.	.	102
CCOC(=O)c1ccc(NC(=O)c2ccc(NC(=O)c3ccccc3)cc2)cc1	i	0.87	-6	-45	90	-0.9	96
O=C(C1=C[C@@H](C2CC2)C[C@@H](OCc2ccc(CO)cc2)O1)N1CCN(Cc2ccccc2)CC1	i	0.77	10	.	.	.	100
CC(C)CCN1CC(C(=O)NCc2ccc(F)cc2)CC1=O (stereo unspecified)	i	0.9	-3	-19	78	-3.2	100
Nc1nonc1-c1noc(CCCOc2ccc(Cl)cc2Cl)n1	i	0.76	-11	.	.	-0.5	112
CC(C)(C)C(=O)NNC(=O)c1cnccn1	i	0.93	.	.	.	.	103
O=C(CN1C(=O)c2ccccc2C1=O)Nc1ccccc1N1CCOCC1	i	0.99	.	.	.	.	92
COC(CNC(=O)C1CCCN1C(=O)OCc1ccccc1)OC (stereo unspecified)	i	0.94	-1	7	148	.	103
Cc1cc(N)n(-c2ccccc2)n1	.	.	3	-50	121	-4.2	99
COc1cc(OC)c(C2CC(=O)N3CN(c4ccccc4)CSC3=C2C#N)cc1OC (stereo unspecified)	i	0.78	4	.	.	-2.4	81
CC(C)CC(C(=O)NCc1ccccn1)N1C(=O)c2ccccc2C1=O (stereo unspecified)	i	1	-16	17	78	-1.8	95
O=C(CNS(=O)(=O)c1cccs1)NCc1ccc(F)cc1	i	0.99	-8	.	.	.	99
COc1ccccc1-c1nc(SCc2ccccn2)n[nH]1	i	0.99	.	.	.	.	115
COc1ccc(/C=N/N=C2/NC(=O)C(CC(=O)O)S2)cc1OCc1ccc(Cl)cc1 (stereo unspecified)	i	1.1	9	63	104	-1.1	106
CS(=O)(=O)NCCOc1ccc(S(=O)(=O)N2CCCc3ccccc32)cc1	i	0.88	-5	-120	30	-1.5	99
COc1cccc(C(C(=O)NC2CCCC2)N(Cc2ccco2)C(=O)c2ccco2)c1OC (stereo unspecified)	i	0.96	7	-17	129	-2.7	99
COc1ccccc1N1CCN(S(=O)(=O)c2cccs2)CC1	i	1.1	-5	-3	119	-1.0	102

Sorted by number of heavy atoms (ascending): three of the compounds above.
SMILES	HSV augment	HSV augment primary fold	PKD1 kinase inh	INS promoter inh	INS promoter inh cell count	GALR2 ag	RGS16-Gao HTS
Cc1cccc(C)c1NC(=O)NC1CC2CCC(C1)N2Cc1cccs1 (stereo unspecified)	i	1.1	-1	-19	111	-2.1	105
Cc1ccccc1NC(=O)CCC(=O)N/N=C/c1cc([N+](=O)[O-])ccc1O	i	1.1	9	-17	143	-1.3	94
O=C(c1ccc2ccccc2c1)N1CCN(c2ccc(C(F)(F)F)cn2)CC1	i	0.96	-1	14	29	-2.1	105

Molecules shown so far that have fluorine:
SMILES	HSV augment	HSV augment primary fold	PKD1 kinase inh	INS promoter inh	INS promoter inh cell count	GALR2 ag	RGS16-Gao HTS
COc1ccccc1NC(=O)c1nn(-c2cccc(C(F)(F)F)c2)ccc1=O	i	0.89	2	-74	108	1.0	135
CC(=O)NCCC(=O)Nc1cc(F)ccc1C	i	1.1	2	48	103	-2.2	107
O=c1c(Cc2c(F)cccc2Cl)c(O)ccn1C1CC1	i	1	7	55	72	.	99
O=C(c1ccc2ccccc2c1)N1CCN(c2ccc(C(F)(F)F)cn2)CC1	i	0.96	-1	14	29	-2.1	105
O=C(C[n+]1cccc(CNC(=O)c2ccc(OC(F)F)cc2)c1)Nc1ccccc1Cl	i	1.1	-4	.	.	-0.5	101
O=C(O)CCC(=O)N1CCC(n2nnc3cc(C(F)(F)F)ccc32)CC1	i	1.1	.	.	.	.	96
O=C(CCCC(=O)OCC(=O)c1cccs1)Nc1ccc(F)cc1	i	1.1	4	.	.	.	102
CC(C)CCN1CC(C(=O)NCc2ccc(F)cc2)CC1=O (stereo unspecified)	i	0.9	-3	-19	78	-3.2	100
O=C(CNS(=O)(=O)c1cccs1)NCc1ccc(F)cc1	i	0.99	-8	.	.	.	99
